Screening results: PubChem, several laboratories
Sa RN4220 lethal: kills Staphylococcus aureus RN4220. inhibition, % (no concentration beside the values). AID 1259311. 330,000 tested, 0.33% active. S. aureus RN4220 growth, OD600, 16 h;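 active = z-score of -3 or lower and OD600 up to 0.18 on both plates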;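 also: plate controls were untreated cells for no effect and reference antibiotic for full effect; stock transfer was 100 nL into about 80 µL; one replicate is shown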
ugtP null kill: compounds lethal to S. aureus RN4220 ugtP deletion mutant. OD600 growth, 16 h; some inactives read as strong as hits. growth inhibition, % (concentration not given with the values). 330,000 tested, 0.54% active. AID 1259309;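 active = z-score under -3 and OD600 up to 0.15 on both plates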;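 also: plate controls were untreated wells for no effect and antibiotic for full effect; wells of about 80 µL received 100 nL stock; the first replicate is given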
Autofluor counter: counter-screen for toxin protease inhibitors: compound fluorescence; compound autofluorescence counterscreen, microsphere flow cytometry; hits give high values; fluorescence intensity (test concentration not listed); 360,000 tested, 3.1% active;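 active = at least 3 SD above the mean of all compounds, about 16000 in these data; inconclusive = too few beads counted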;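 also: 100 nL of 1 mM stock went into each well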
BJeLR viability: kills HRASV12-expressing BJeLR cells; 300,000 tested, 0.17% active; inhibition, % (concentration not given with the values); BJeLR (HRASV12) viability, CellTiter-Glo ATP luminescence, 48 h; reference of the scale not given here; AID 1554;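 active = replicate mean above 50%; inconclusive = above 50% but judged a plate artefact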;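 also: 50 nL library stock added to about 25 µL; numbers are from one replicate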
PrP 5UTR inh: suppresses PrP 5' UTR mRNA reporter expression; cell-based PrP 5' UTR mRNA reporter, plate reader; inhibition, % (concentration not given with the values); 340,000 tested, 0.35% active;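 active = every replicate at 50% or more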;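 also: 0 = median of the neutral control wells; tested in H4 reporter cells; numbers are from one replicate; inactives centre near -14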
Mtb hypoxia inh: inhibitors of hypoxia-regulated fluorescent reporter in Mycobacterium tuberculosis; M. tuberculosis hypoxia-regulated fluorescent reporter, fluorescence; fluorescence inhibition, % (concentration not given with the values); 300,000 tested, 0.1% active; AID 1159583;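 active = 35 to 45% if threefold the growth effect, above 45% if 1.5-fold the growth effect; inactive = the rest, general growth blockers included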;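 also: wells of about 50 µL received 100 nL stock; 0% = vehicle wells and 100% = reference inhibitor wells; whole bacteria with a GFP reporter of the hypoxia response; strong numbers were not always called active; many hits fall short of the cut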
Mtb hypoxia inh growth: recorded beside Mtb hypoxia inh, whose call it bears; growth inhibition, %; measured here: M. tuberculosis growth (absorbance);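 0% = vehicle and 100% = reference antibiotic; read after six days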
Active calls of the source: *.

For COC(=O)C1=C(C)NC(C)=C(C(=O)OC)C1C(=O)OCc1nnc(-c2ccccc2Cl)o1 the results were Sa RN4220 lethal 1.5, ugtP null kill -2, Autofluor counter 6831, PrP 5UTR inh -13, Mtb hypoxia inh -3 and Mtb hypoxia inh growth -2.
For CC1=C(C(=O)Nc2ccccc2C)C(c2ccc(C)o2)n2c(sc(=Cc3ccccc3)c2=O)=N1 (centres undefined) the results were Sa RN4220 lethal 3.4, ugtP null kill 5, Mtb hypoxia inh -11 and Mtb hypoxia inh growth 6.
Screening CCOc1nsc(OCC)n1 returned Sa RN4220 lethal -1.4, ugtP null kill 10, Autofluor counter 3558, BJeLR viability 5, PrP 5UTR inh -14, Mtb hypoxia inh 3 and Mtb hypoxia inh growth -11.
COc1ccc(C=NNC(=O)c2nc(-c3ccccc3)cc(-c3ccccc3)n2)cc1 was read as Sa RN4220 lethal 2.3, ugtP null kill -4, Mtb hypoxia inh 0 and Mtb hypoxia inh growth -2.
Screening CCOC(=O)c1ccc(NC(=S)N2CCCC(C(=O)N3CCCC3)C2)cc1 (centres undefined) returned Sa RN4220 lethal 2.2, ugtP null kill 2, Autofluor counter 5013, BJeLR viability 7, PrP 5UTR inh -18, Mtb hypoxia inh 9 and Mtb hypoxia inh growth 6.
Screening COc1ccc(/C=C/C(=O)OCC(=O)NC2CCCC2)cc1OC returned Sa RN4220 lethal 1.6, ugtP null kill 2, Autofluor counter 3608, PrP 5UTR inh -9, Mtb hypoxia inh 1 and Mtb hypoxia inh growth 7.
`COc1ccccc1C(CNC(=O)c1ccc(NS(=O)(=O)c2ccc(F)c(C)c2)cc1)N1CCCC1` (centres undefined) gave Sa RN4220 lethal 0.6, ugtP null kill 3, Autofluor counter 11596, BJeLR viability 3, PrP 5UTR inh -1, Mtb hypoxia inh 2 and Mtb hypoxia inh growth 9.
O=S(=O)(NCc1ccco1)c1cccc(S(=O)(=O)N2CCOCC2)c1 was read as Sa RN4220 lethal 2.9, ugtP null kill -3, Autofluor counter 4808, BJeLR viability -13, PrP 5UTR inh -14, Mtb hypoxia inh 5 and Mtb hypoxia inh growth 7.
`COc1cccc(OCC(=O)N(Cc2nc(-c3ccc(Cl)cc3)no2)C(C)C)c1` gave Sa RN4220 lethal 0.4, ugtP null kill 14, Autofluor counter 5773, BJeLR viability -14, PrP 5UTR inh 14, Mtb hypoxia inh 5 and Mtb hypoxia inh growth 3.
Screening COc1ccc(S(=O)(=O)N(CC(=O)N2CCCC2)Cc2ccccc2)cc1 returned Sa RN4220 lethal -6.3, ugtP null kill -4, Autofluor counter 3437, BJeLR viability 1, PrP 5UTR inh -10, Mtb hypoxia inh 5 and Mtb hypoxia inh growth 5.
For O=C(N/N=C/c1ccccn1)c1cc(-c2ccc(Cl)cc2)nc2ccccc12 the results were Autofluor counter 8829, BJeLR viability 9 and PrP 5UTR inh -13.
O=C(OCc1nnc(-c2ccccc2Br)o1)c1ccco1 was read as Sa RN4220 lethal 2.7, ugtP null kill -1, Autofluor counter inconclusive, PrP 5UTR inh -8, Mtb hypoxia inh 2 and Mtb hypoxia inh growth 8.
For COc1ccc(CC(=O)Nc2nc(-c3cccc([N+](=O)[O-])c3)cs2)cc1 the results were Sa RN4220 lethal 8.2, ugtP null kill 4, Autofluor counter 2179, BJeLR viability -16, PrP 5UTR inh -2, Mtb hypoxia inh 14 and Mtb hypoxia inh growth 9.
Cc1cc(C(=O)COC(=O)C(C)NC(N)=O)c(C)n1Cc1ccco1 (centres undefined) was read as Sa RN4220 lethal 1.6, ugtP null kill 6, Autofluor counter 3320, BJeLR viability 1, PrP 5UTR inh -8, Mtb hypoxia inh 13 and Mtb hypoxia inh growth 9.
`CCNC(=O)CC1SC(=NN=C(C)c2ccccc2)NC1=O` (centres undefined) gave Sa RN4220 lethal 2.9, ugtP null kill -4, Mtb hypoxia inh 7 and Mtb hypoxia inh growth 7.
For CCC(Sc1nc2c(c(=O)n1CC)SC(C)C2)C(=O)OC (centres undefined) the results were Sa RN4220 lethal -8.6, ugtP null kill -3, Autofluor counter 5327, BJeLR viability -3, PrP 5UTR inh -1, Mtb hypoxia inh 3 and Mtb hypoxia inh growth 14.
For CCOC(=O)C1=C(c2ccccc2)NC(N)=NC1c1ccc(OCc2ccc(Cl)cc2)c(OC)c1 (centres undefined) the results were Sa RN4220 lethal 99*, ugtP null kill 71, Autofluor counter 4022, BJeLR viability 7, PrP 5UTR inh -26, Mtb hypoxia inh 17 and Mtb hypoxia inh growth 34.
For COc1ccc(OC)c(/C=C/c2c([N+](=O)[O-])c(=O)n(C)c(=O)n2C)c1 the results were Sa RN4220 lethal 11, ugtP null kill -62, Autofluor counter 4388, BJeLR viability -10, PrP 5UTR inh -14, Mtb hypoxia inh 15 and Mtb hypoxia inh growth 10.
Screening COc1cc2cc(C(c3nnnn3C3CCCC3)N3CCc4ccccc43)c(=O)[nH]c2cc1OC (centres undefined) returned Sa RN4220 lethal 6.1, ugtP null kill -6, Autofluor counter 19430*, BJeLR viability 2, PrP 5UTR inh -18, Mtb hypoxia inh -1 and Mtb hypoxia inh growth -1.
Screening CCC(C)N(CC(=O)NCc1ccc(OC)cc1)C(=O)c1csnn1 (centres undefined) returned Sa RN4220 lethal 4.5, ugtP null kill -5, Autofluor counter 16830*, BJeLR viability -2, PrP 5UTR inh -23, Mtb hypoxia inh 4 and Mtb hypoxia inh growth 3.
COc1ccc(S(=O)(=O)N2CCOC2CNC(=O)C(=O)NCc2ccc3c(c2)OCO3)cc1OC (centres undefined) was read as Sa RN4220 lethal 1.6, ugtP null kill 0, Autofluor counter 5536, BJeLR viability 0, PrP 5UTR inh 6, Mtb hypoxia inh 2 and Mtb hypoxia inh growth 9.
`COc1ccccc1/C=C/C=N\N1CCN(Cc2ccccc2Cl)CC1` gave Autofluor counter 10972, BJeLR viability 6 and PrP 5UTR inh -38.
COc1ccc(OCCSc2nnc(CCNC(=O)c3ccc(OC)cc3)n2C)cc1 was read as Sa RN4220 lethal 2.2, ugtP null kill 15, Autofluor counter 8027, BJeLR viability -12, PrP 5UTR inh 4, Mtb hypoxia inh 8 and Mtb hypoxia inh growth 3.
Screening CCc1nnc(NS(=O)(=O)c2ccc(NC(=O)c3ccc(Br)cc3)cc2)s1 returned Sa RN4220 lethal 11, ugtP null kill 13, Autofluor counter 3972, BJeLR viability -14, PrP 5UTR inh -9, Mtb hypoxia inh -2 and Mtb hypoxia inh growth 13.
For COc1ccccc1NC(=O)CN1C(=O)COc2ccc(S(=O)(=O)N3CCC(C)CC3)cc21 the results were Sa RN4220 lethal 2.8, ugtP null kill 5, Autofluor counter 4696, BJeLR viability 18, PrP 5UTR inh -24, Mtb hypoxia inh 9 and Mtb hypoxia inh growth 4.
`CC1(C)C2CCC1(C)C(NCC(O)COc1ccc(C#N)cc1)C2` (centres undefined) gave Sa RN4220 lethal 1.1, ugtP null kill -2, Autofluor counter 3714, BJeLR viability -2, PrP 5UTR inh -18, Mtb hypoxia inh -8 and Mtb hypoxia inh growth 0.
Screening NS(=O)(=O)c1ccc(CCNC(c2ccccc2)c2ccccc2)cc1 returned Sa RN4220 lethal 4.6, ugtP null kill 9, Autofluor counter 3345, BJeLR viability 1, PrP 5UTR inh -8, Mtb hypoxia inh 4 and Mtb hypoxia inh growth -7.
`CCc1ccc(S(=O)(=O)NCc2cn3ccccc3n2)s1` gave Sa RN4220 lethal -12, ugtP null kill -6, Autofluor counter 2406, BJeLR viability 2, PrP 5UTR inh -7, Mtb hypoxia inh 2 and Mtb hypoxia inh growth 13.
`COc1cc(CC(=O)OCC(=O)Nc2ccc([N+](=O)[O-])cc2)cc(OC)c1OC` gave Sa RN4220 lethal -1.4, ugtP null kill 2, Autofluor counter 3947, BJeLR viability 3, PrP 5UTR inh -24, Mtb hypoxia inh 8 and Mtb hypoxia inh growth -2.
COc1ccc(C(C)=O)cc1CSc1nnc(SCc2cc(C(C)=O)ccc2OC)s1 was read as Sa RN4220 lethal 2.3, ugtP null kill 0, BJeLR viability -6, Mtb hypoxia inh 1 and Mtb hypoxia inh growth 4.
For Cc1ccc(S(=O)(=O)NCc2ccccc2)cc1C(=O)N1CCCCC1 the results were Sa RN4220 lethal 3.7, ugtP null kill 15, Autofluor counter 6062, BJeLR viability -2, PrP 5UTR inh -22, Mtb hypoxia inh 6 and Mtb hypoxia inh growth 4.
For Cc1cc(NS(=O)(=O)c2ccc(NC(=O)c3cc(-c4ccccc4Cl)nc4ccccc34)cc2)no1 the results were Sa RN4220 lethal 3.5, ugtP null kill -21, Autofluor counter 10245, BJeLR viability -5, PrP 5UTR inh -7, Mtb hypoxia inh 24 and Mtb hypoxia inh growth 27.
For COC(=O)NN1C(=O)C(c2ccccc2)=C(c2ccc(Cl)cc2)C1=O the results were Sa RN4220 lethal -0.8, ugtP null kill 5, Autofluor counter 4555, BJeLR viability -4, PrP 5UTR inh -11, Mtb hypoxia inh 3 and Mtb hypoxia inh growth 7.
COc1ccc(NC(=O)C(=O)NCCN2CCN(C(=O)C(c3ccccc3)c3ccccc3)CC2)cc1 was read as Sa RN4220 lethal 0.7, ugtP null kill 1, Autofluor counter 8976, BJeLR viability -16, PrP 5UTR inh -26, Mtb hypoxia inh -6 and Mtb hypoxia inh growth 12.
For Cc1nc2ccc(Cl)cc2c(=O)n1-c1cccc(Cl)c1 the results were Sa RN4220 lethal 6.3, ugtP null kill 13, BJeLR viability -3, PrP 5UTR inh 11, Mtb hypoxia inh 7 and Mtb hypoxia inh growth 0.
Screening CCc1cc(=O)oc2cc(OC(C)C(=O)NCC(O)c3ccccc3)c(Cl)cc12 (centres undefined) returned Autofluor counter 6248, BJeLR viability -1 and PrP 5UTR inh -24.
For CC(=O)O/N=C(/c1nonc1N)N(C)C the results were Autofluor counter 3856, BJeLR viability 4 and PrP 5UTR inh -32.
Cc1csc2nc(CNC(=O)CCC(=O)O)cn12 was read as Sa RN4220 lethal -4.0, ugtP null kill 9, Autofluor counter 6473, BJeLR viability 0, PrP 5UTR inh -30, Mtb hypoxia inh 7 and Mtb hypoxia inh growth 6.
`CN=C1SC(CC(=O)Nc2cccc(C(F)(F)F)c2)C(=O)N1C` (centres undefined) gave Sa RN4220 lethal 2.2, ugtP null kill 3, Autofluor counter 16700*, BJeLR viability 10, PrP 5UTR inh -6, Mtb hypoxia inh -3 and Mtb hypoxia inh growth -9.
Screening NS(=O)(=O)c1cccc(NC(=O)COc2ncnc3c2cnn3-c2ccccc2)c1 returned Sa RN4220 lethal 0.0, ugtP null kill 1, Autofluor counter 4025, BJeLR viability -3, PrP 5UTR inh 4, Mtb hypoxia inh 7 and Mtb hypoxia inh growth -2.
Screening Cc1ccc(NC(=O)CCN2C(=O)c3ccncc3C2=O)cc1 returned Sa RN4220 lethal -2.0, ugtP null kill 2, Autofluor counter 3404, BJeLR viability 15, PrP 5UTR inh 4, Mtb hypoxia inh 1 and Mtb hypoxia inh growth -5.
`CC/C(=N\NC(=O)c1ccc2c(c1)OCO2)C12CC3CC(CC(C3)C1)C2` gave Autofluor counter 4652, BJeLR viability -20 and PrP 5UTR inh -1.

4 entries drawn at random from the list so far, as already listed:
For COc1ccc(OC)c(/C=C/c2c([N+](=O)[O-])c(=O)n(C)c(=O)n2C)c1 the results were Sa RN4220 lethal 11, ugtP null kill -62, Autofluor counter 4388, BJeLR viability -10, PrP 5UTR inh -14, Mtb hypoxia inh 15 and Mtb hypoxia inh growth 10.
For Cc1nc2ccc(Cl)cc2c(=O)n1-c1cccc(Cl)c1 the results were Sa RN4220 lethal 6.3, ugtP null kill 13, BJeLR viability -3, PrP 5UTR inh 11, Mtb hypoxia inh 7 and Mtb hypoxia inh growth 0.
`CCNC(=O)CC1SC(=NN=C(C)c2ccccc2)NC1=O` (centres undefined) gave Sa RN4220 lethal 2.9, ugtP null kill -4, Mtb hypoxia inh 7 and Mtb hypoxia inh growth 7.
Screening CCOc1nsc(OCC)n1 returned Sa RN4220 lethal -1.4, ugtP null kill 10, Autofluor counter 3558, BJeLR viability 5, PrP 5UTR inh -14, Mtb hypoxia inh 3 and Mtb hypoxia inh growth -11.
